Assay outcomes: PubChem, National Center for Advancing Translational Sciences (NCATS)
PINK1 expr mod = A Quantitative High throughput Screen to Identify Chemical Modulators of PINK1 Expression; 410,000 tested, 0.2% active; PINK1 immunofluorescence, high-content cytometry, 24 h; AID 624263, 2012; Potency, µM (highest dose often 76.6 µM), inactives show top-dose activation (PINK1 increase), hits mostly activators; active = well fitted activation curve with a large enough effect; inconclusive = small, poorly fitted or top-dose-only effect; inactive = flat fitted curve, though single readings scatter; cell line not stated here;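 note: potency is the fitted concentration of half-maximal effect; % of control where 0% means no effect; nearly all actives have a fitted effect of over 65% in size; a mitochondrial uncoupler was the plate control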
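Cells are seeded, rested 12 hours, then given compound at five concentrations or DMSO for 24 hours. After fixation, blocking and antibody staining, PINK1 amount and mitochondrial localization are scored; CCCP serves as control.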
D2 potentiator = Beta-Arrestin HTS for Positive Allosteric Modulators of the Human D2 Dopamine Receptor: Potentiators | D(2) dopamine receptor (Homo sapiens), P14416 | DiscoveRx D2 beta-arrestin cells, luminescence, 90 min; 100% = 57 uM dopamine signal | potentiation, % (concentration not given with the values) | 360,000 tested, 0.23% active; active = potentiation of 50% or more; inconclusive = 30% to 50%; inactive = 30% or less;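 note: compound concentration not given in the record; tested on top of an EC20 dose of dopamine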
Target sequence (P14416 whole entry, looked up): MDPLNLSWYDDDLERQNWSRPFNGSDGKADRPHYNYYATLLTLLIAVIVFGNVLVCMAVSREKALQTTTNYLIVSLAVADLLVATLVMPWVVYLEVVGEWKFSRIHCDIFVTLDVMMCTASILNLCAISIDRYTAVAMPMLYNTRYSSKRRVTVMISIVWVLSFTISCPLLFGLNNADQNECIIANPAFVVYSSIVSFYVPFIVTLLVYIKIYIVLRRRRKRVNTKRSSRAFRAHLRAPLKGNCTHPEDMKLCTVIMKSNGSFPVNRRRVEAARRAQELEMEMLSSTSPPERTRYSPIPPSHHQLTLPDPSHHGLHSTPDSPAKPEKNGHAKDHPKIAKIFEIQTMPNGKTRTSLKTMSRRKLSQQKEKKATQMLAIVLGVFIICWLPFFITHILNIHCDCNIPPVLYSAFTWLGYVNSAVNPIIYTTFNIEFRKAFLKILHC
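PathHunter beta-arrestin assay in DiscoveRx D2 cells. Compounds were added with an EC20 of dopamine (50 nM final) for 90 min at 37 deg C. Luminescence was read 1 h after detection reagent, with 57 uM dopamine as the EC100 control.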
Sfp inh = qHTS Assay for Inhibitors of Bacillus subtilis Sfp phosphopantetheinyl transferase (PPTase). Biochemical Sfp PPTase activity, qHTS. Potency, µM, for inactives: max response, negative = inhibition, hits mostly inhibitors. AID 1490, 2009. 4'-phosphopantetheinyl transferase ffp (Bacillus subtilis), Q9F4F7. 310,000 tested, 3.5% active; active = well fitted inhibition curve with a large enough effect; inconclusive = small, poorly fitted or top-dose-only effect, or another doubt; inactive = no such curve, though single readings can be large or run the other way;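 note: the enzyme is Sfp with the accession as filed and its product quenches rhodamine fluorescence; potency is the fitted concentration of half-maximal effect; 0% = enzyme reaction without inhibitor and -100% = no enzyme wells; top concentration of the series not given in the record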
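With Hepes-Na pH 7.6 buffer containing 10 mM MgCl2, Sfp (15 nM) modified BHQ-2-YbbR (12.5 uM) using rhodamine-CoA (5 uM). Two reads 30 minutes apart at 525/598 nm yielded each well's rate.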
TRPV1 PAM = HTS Assay for Compounds that Act as Potentiators of the Vanilloid Receptor 1 | Transient receptor potential cation channel subfamily V member 1 (Homo sapiens), Q8NER1 | TRPV1-expressing cells, Fluo-8 calcium influx, capsaicin EC20 potentiation; host cell line not named in the record; control for the full effect not named in the record | potentiation, % at 8.33 µM | 320,000 tested, 0.02% active | AID 540277, 2011; active means potentiation above 80%; inconclusive means 30% to 80%; inactive means below 30%; note: 0% is about no effect
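TRPV1-expressing cells were cultured overnight at 35.5C and loaded with Fluo-8 calcium dye for 40 to 90 min at room temperature. After a 10 s baseline, compound was added and calcium influx was read kinetically for 3 min (ex 480/em 520 nm).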
CtBP-E1A inh = qHTS Assay for Inhibitors of the CtBP/E1A Interaction; activity change, % (test concentration not listed); AlphaScreen GST-E1A/His-CtBP binding, 1536-well; hits give low values; control for the full effect not named in the record; 340,000 tested, 0.49% active; CtBP / adenovirus E1A interaction (AlphaScreen); AID 651724, 2012; in the data active means activity change below about -65%; inconclusive means about -30% to -65%; inactive means above about -30%; note: % is set by controls: 0 for no effect and ±100 for the full control effect; compound concentration not given in the record
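Protein mix (5X: 125 nM each GST-E1A, His-CtBP) was incubated with pinned compound 2 h at 37 deg C in dark, in 50 mM Tris pH 8.0 buffer with 300 mM NaCl. Glutathione donor and nickel acceptor beads followed; AlphaScreen signal read after 1 h.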
Six1-Eya2 inh = qHTS Assay for Inhibitors of the Six1/Eya2 Interaction; 360,000 tested, 0.56% active; activity change, % (concentration not given with the values); AlphaScreen GST-Six1/His-Eya2 binding, biochemical; hits give low values; control for the full effect not named in the record; Homeobox protein SIX1 (Homo sapiens) + Protein phosphatase EYA2 (Homo sapiens), …; in the data active = activity change below about -65%; inconclusive = about -30% to -65%; inactive = above about -30%; note: % is set by controls: 0 for no effect and ±100 for the full control effect
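Compounds are tested against tagged Six1 and Eya2 proteins bridged by glutathione donor and nickel acceptor beads; after a one-hour incubation at 37 °C without light, AlphaScreen emission is recorded.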
D2 ag = Beta-Arrestin HTS for Positive Allosteric Modulators of the Human D2 Dopamine Receptor: Agonists | D(2) dopamine receptor (Homo sapiens), P14416 | activation, % (concentration not given with the values) | 360,000 tested, 0.084% active | DiscoveRx PathHunter D2 beta-arrestin, luminescence, 90 min; 100% = 57 uM dopamine signal; in the data active = activation above about 40%; inconclusive = about 15% to 40%; inactive = below about 15%; note: compound concentration not given in the record; the text of the record calls up to 30% inactive
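DiscoveRx PathHunter D2 beta-arrestin cells (2,100/well) attached overnight, then compound-stimulated 90 min at 37 C in HBSS/10 mM HEPES/0.1% Tween-20 buffer; beta-galactosidase complementation read by luminescence after 1 h at ambient temperature. Dopamine 57 uM final (EC100) as control.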
Numbers without * were called inactive; ? = inconclusive; nt = no result given; & = joins results of further samples; [ ] = remark or other dose.

SMILES | PINK1 expr mod | D2 potentiator | Sfp inh | TRPV1 PAM | CtBP-E1A inh | Six1-Eya2 inh | D2 ag
COc1ccc(Br)cc1CN1CCN(C(=O)c2ccco2)CC1 | 2.0% | -14.8 | ? | 5.6 | 2.5 | -8.1 | 0.5
CCC(C)(C)n1nnnc1C(c1cccc(C#N)c1)N1CCN(c2cccc(C)c2C)CC1 (stereo not given) | -2.3%[38.3 µM] | 1.8 | 9.3% | -15.3 | 0.8 | 3.3 | 1.9
Cc1cc(C)c2cc(C(=O)Nc3ccc4c(c3)OCO4)[nH]c2c1 | 13.4% | -1.7 | ? | 10.7 | -2.3 | -5.1 | 5.5
COc1ccccc1CNC(=O)CCn1c(=O)[nH]c2ccsc2c1=O | 2.3% | -3.6 | 24.6% | 1.3 | 0.7 | 2.7 | -0.9
CC1CC(=O)Nc2cc([N+](=O)[O-])ccc2N1 (stereo not given) | 1.9% | -4.6 | 1.5% | 5.7 | 8.0 | 4.6 | -3.5
COc1cccc(NC(=O)CCC2CCN(C(=O)c3cncs3)CC2)c1 | 0.5% | -21.7 | -10.3% | 1.2 | 1.5 | -1.7 | 4.1
Cc1cccc(C(C(=O)NC2CCCC2)N(C(=O)c2csnn2)C2CC2)c1 (stereo not given) | -1.3% | -5.1 | -3.1% | -8.2 | 2.3 | -3.8 | -1.2
CC1(C)C/C(=N\O)C(C(O)c2cccc([N+](=O)[O-])c2)C(C)(C)N1 (stereo not given) | -2.5% | -0.6 | 8.4% | 8.4 | -6.1 | -1.6 | -1.5
O=c1c2ccccc2nnn1CSc1nc2sc3c(c2c(=O)n1CC1CCCO1)CCC3 (stereo not given) | 0.6%[38.3 µM] | -6.0 | -9.0% | -14.2 | 8.2 | -0.6 | 0.6
CCCN(C(=O)CSc1nnnn1C)c1c(N)n(Cc2ccccc2)c(=O)[nH]c1=O | -1.6% | -12.0 | 15.1% | 17.6 | nt | 3.2 | -1.1
CN(C(=O)COC(=O)c1cccc(S(=O)(=O)N2CCCCCC2)c1)c1ccccc1 | -0.2% | -16.3 | nt | nt | 3.8 | 6.8 | -2.3
COc1ccc(S(=O)(=O)N2CCN(CC(=O)Nc3cc(Cl)ccc3Cl)CC2)cc1 | 10.7% | -4.2 | nt | 2.2 | 14.1 | 3.8 | -2.1
COc1ccc(SC[C@H](C)CN2CC[C@H](NC(=O)OCc3ccccc3)CCC2=O)cc1 | 0.7% | -10.8 | nt | nt | -19.9 | 0.5 | -3.3
O=c1[nH]c(=S)n(-c2ccc(Br)cc2)c2ncccc12 | 1.8% | -5.4 | nt | nt | 8.0 | 7.1 | -1.2
Cc1ccc(NC(=O)c2ccc(Cl)c(S(=O)(=O)Nc3c(C)n(C)n(-c4ccccc4)c3=O)c2)cc1Cl | 0.8% | -21.6 | nt | -2.0 | -2.2 | -12.8 | -5.6
O=C(NC1CCCC1)C(c1ccccc1)N(C(=O)c1csnn1)C1CCCC1 (stereo not given) | -0.6% | -0.8 | 5.5% | 14.3 | 12.7 | 3.0 | -3.6
COc1ccc2c(c1)sc(N)[n+]2Cc1cc(C)cc2cccnc12 | ? | -3.9 | -3.2% | 13.0 | -6.5 | -14.6 | -4.3
Cc1cc(C(=O)NC(Cc2ccccc2)C(=O)O)c(C)o1 (stereo not given) | -0.8% | -8.5 | 12.2% | 2.7 | 0.8 | 13.5 | -1.7
COc1cc(NC(=O)c2cc(Cl)ccc2Cl)ccc1-c1cc2ccccc2oc1=O | 20.5%[38.3 µM] | 1.1 | 15.0% | -2.2 | -0.2 | 3.6 | 1.8
CC1CCCN(CCOCCOc2ccccc2-c2ccccc2)C1 (stereo not given) | 6.7% | -32.0 | -31.6% | 12.8 | 0.8 | -3.4 | 0.1

Record cards, from the list above. Values in the order: PINK1 expr mod | D2 potentiator | Sfp inh | TRPV1 PAM | CtBP-E1A inh | Six1-Eya2 inh | D2 ag
Shown for `CN(C(=O)COC(=O)c1cccc(S(=O)(=O)N2CCCCCC2)c1)c1ccccc1` : -0.2% | -16.3 | nt | nt | 3.8 | 6.8 | -2.3
Shown for `CCCN(C(=O)CSc1nnnn1C)c1c(N)n(Cc2ccccc2)c(=O)[nH]c1=O` : -1.6% | -12.0 | 15.1% | 17.6 | nt | 3.2 | -1.1
Shown for `COc1ccc(SC[C@H](C)CN2CC[C@H](NC(=O)OCc3ccccc3)CCC2=O)cc1` : 0.7% | -10.8 | nt | nt | -19.9 | 0.5 | -3.3
Shown for `COc1ccc(S(=O)(=O)N2CCN(CC(=O)Nc3cc(Cl)ccc3Cl)CC2)cc1` : 10.7% | -4.2 | nt | 2.2 | 14.1 | 3.8 | -2.1

The results go on.
SMILES | PINK1 expr mod | D2 potentiator | Sfp inh | TRPV1 PAM | CtBP-E1A inh | Six1-Eya2 inh | D2 ag
Cn1nccc1C(=O)NC1CCCc2c1cnn2-c1ccccc1F (stereo not given) | 0.0% | -6.5 | 5.3% | -2.0 | nt | 6.5 | 10.7
Cc1cc(C(F)(F)F)c2sc(N)nc2n1 | 4.5% | -3.6 | 3.5% | ? | -28.1 | -11.9 | 0.7
CCN1C(=O)[C@H]2[C@@H](c3ccc(SC4CCCCC4)cc3)N3CCCC[C@@]3(C(=O)OC)[C@H]2C1=O | -1.1% | -6.3 | nt | -1.4 | -13.9 | 6.9 | 1.7
COc1ccccc1CCNC(=O)C(=O)NCC1CCCN1S(=O)(=O)c1ccccc1 (stereo not given) | 2.9% | 9.1 | nt | -4.1 | 2.8 | -10.5 | 10.5
C1CCc2c(nc3nnnn3c2NCC2CC2)C1 | 0.1% | -10.1 | 7.0% | 6.0 | -0.7 | 1.1 | -3.2
COc1ccc(Cc2nnc(SCC(=O)Nc3ncc(C)s3)o2)cc1 | 3.7% | -6.7 | 6.4% | 15.9 | 4.1 | -0.9 | -2.2
Cc1ccccc1S(=O)(=O)Cc1ccc(C(=O)NCc2ccc(F)cc2)o1 | -0.7% | 1.7 | 11.2% | -10.1 | nt | 0.1 | 9.6
Cc1ccc(OCC(=O)Oc2ccc(C)c(C)c2)cc1 | -1.6% | -2.1 | -3.9% | -2.6 | -6.4 | 46.0 | 6.7
CCCCC(=O)NC(=S)Nc1ccc(NC(=O)C(C)C)c(OC)c1 | 2.6% | -26.6 | 6.0% | -7.3 | 5.9 | 1.0 | -3.0
Cc1cccc(NC(=O)CSc2nnc(C)c(C)n2)c1 | 0.2% | 1.0 | 13.0% | 3.8 | -12.4 | -6.2 | -2.4
Cn1cc(CN2CCC(n3nccc3NC(=O)c3ccccc3Cl)CC2)cn1 | -0.8% | -12.7 | 9.5% | -10.4 | 10.5 | -0.5 | -0.2
O=C1NC[C@H](c2ccccc2)N(CCc2cccc(F)c2)C1=O | 0.2% | -0.8 | 9.2% | -5.8 | nt | 0.3 | 1.8
Cc1ccc(C)c(Oc2coc3cc(O)ccc3c2=O)c1 | 8.3% | 6.0 | 1.6% | -0.1 | nt | -5.8 | 1.3
Cc1cccnc1NC(=S)NC(=O)/C=C/c1ccccc1 | -2.7% | -6.7 | 11.8% | 3.3 | -2.0 | ? | -1.3
CC(=O)c1cccc(NC(=O)c2cc(-c3ccco3)nc3ccccc23)c1 | 8.5% | 10.8 | -10.0% | -7.3 | -11.6 | -10.3 | 12.7
CCC(C)(CC(=O)Nc1nccs1)c1ccccc1 (stereo not given) | -1.4% | -4.4 | 7.8% | 2.8 | -0.2 | 0.1 | -3.0
COc1ccc(C2C(C#N)C(C#N)N3CCCN23)cc1 (stereo not given) | -0.2% | -13.2 | 4.7% | -3.6 | -15.5 | 1.8 | -1.1
OC1CCCCC1Sc1nc2ccccc2s1 (stereo not given) | nt | -2.0 | 9.5% | -15.5 | 6.6 | 4.3 | -1.8
NC1=NC(=O)/C(=C\c2ccc(-c3ccc(Cl)cc3)o2)S1 | -0.5% | -12.8 | 8.9% | -5.6 | -21.8 | -16.8 | -3.9
[N-]=[N+]=NC[C@H](Cc1ccccc1)N1CC[C@@H](NC(=O)OCc2ccccc2)CCC1=O | -0.6% | -19.7 | 19.6% | 0.9 | 1.6 | 3.3 | -3.8
Cc1ccc(NC(=O)CCNS(=O)(=O)c2cccc3nsnc23)cc1 | 0.3%&-0.1% | 1.4 | -4.7% | 8.6 | 3.3 | 2.2 | -1.6
O=C(CCC(=O)N1CCN(S(=O)(=O)c2ccc(Cl)cc2)CC1)Nc1ccc(Cl)cc1Cl | 1.8% | -2.9 | 6.2% | 4.0 | nt | -5.8 | -0.8
COc1ccc(-c2nc(N/N=C(\C)c3ccc(O)cc3)c3ccccc3n2)cc1 | 1.8% | 6.6 | -24.5% | 1.8 | 2.1 | -5.6 | -2.9
Cn1cc(CNC(=O)/C=C/c2ccc(Cl)cc2)cn1 | 3.9% | -22.0 | -5.4% | -18.5 | 17.5 | -2.3 | -9.8
COc1ccc(/C=N/Nc2nonc2N)cc1 | -7.0%[38.3 µM] | -5.0 | -1.6% | -6.8 | -0.7 | -0.7 | 0.0
CCCN(C(=O)c1ccc(S(=O)(=O)N2CCCC2)cc1)C1CCS(=O)(=O)C1 (stereo not given) | 0.4% | -0.5 | nt | 1.4 | -23.1 | 2.3 | 0.7
COc1ccccc1NS(=O)(=O)c1ccc(C)c(C(=O)NC2=NCCS2)c1 | 0.7% | -1.6 | nt | 2.7 | -2.4 | 7.5 | -3.5
Cc1ccc(SCC(=O)NCc2ccccc2)cc1 | -0.1% | -4.1 | 1.5% | -12.5 | -2.3 | 8.0 | 4.9
CC(NC(=O)c1ccccc1Cl)C1COc2ccccc2O1 (stereo not given) | -1.6% | -4.3 | -1.2% | -10.1 | 5.2 | 4.8 | -2.2
Cc1ccc(Oc2nnc(-c3ccccc3)cc2C#N)cc1 | ? | -3.1 | 21.4% | 6.2 | -0.9 | 5.5 | 3.6
CCN(CC(=O)Nc1cccc(S(=O)(=O)N(C)c2ccccc2)c1)Cc1ccccc1 | 0.3% | 2.8 | nt | -11.6 | 2.5 | 2.2 | -6.4
